Calb FLC = affects C. albicans growth with fluconazole; hit rate 0.57% among 300,000; AID 1979; growth inhibition, % (no concentration beside the values); C. albicans CaCi-2 (fluconazole-resistant clinical isolate) + fluconazole, Alamar Blue growth, 48 h;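 active means most replicates above 75%; inconclusive means exactly half above 75%; inactive means most below 75%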;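 further: all wells also contain fluconazole at 8 µg/ml as a sub-toxic cotreatment; 0% = median of DMSO wells and 100% = median of geldanamycin control wells; wells of about 8 µL received 7.5 nL stock; the first replicate is given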
Vif TR-FRET = HIV-1 Vif–A3G interaction blockers – biochemical, TR-FRET, GST-Vif 1-94, biotin-A3G peptide, dose response retest, primary screen (AID 1117319); TR-FRET GST-Vif / biotin-A3G peptide binding; higher % means a stronger effect; test concentration not given here; strong numbers were not always called active; inhibition, %; hits with a dose series show IC50 in µM; hit rate 0.57% among 260,000;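 active means above the screen mean plus three standard deviations and confirmed in dose response; inconclusive means results disagree or hit not tested in dose response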;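 further: Vif residues 1-94 fused to GST binding biotinylated APOBEC3G peptide 110-148; 0% = full assay without inhibitor and 100% = GST in place of GST-Vif; retest series ran down from 100 µM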
LANA-H2B inh = blocks KSHV LANA binding to histone H2A/H2B | Q9QR71 | cell-free LANA-H2A/H2B peptide, fluorescence polarization | inhibition, % (no concentration beside the values) | hit rate 0.6% among 320,000; in the data active means inhibition mostly above about 10%, no sharp cut-off; inactive means mostly below about 6.7%;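 further: stock transfer was 7.5 nL into about 10 µL; 0% = median of vehicle wells and 100% = median of positive control wells; one replicate is shown; the record names a cut of 25% in any replicate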
MLL AF4-AF9 inh = MLL-AF4/AF9 protein interaction inhibition; P42568; inhibition, % at 10 µM; AID 651704; AlphaScreen, biotin-AF4 peptide binding to FLAG-AF9; hit rate 0.47% among 350,000;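 active means every replicate reaching a set inhibition limit, whatever the replicate mean, cut at about 25% in these data; inconclusive means mean inhibition reaches that limit but some replicates miss it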;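 further: 0% = plate neutral control median and 100% = total signal loss; the record names both 10 and 1 µM as test concentration; the first replicate is given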
Target sequence (P42568 whole entry, looked up): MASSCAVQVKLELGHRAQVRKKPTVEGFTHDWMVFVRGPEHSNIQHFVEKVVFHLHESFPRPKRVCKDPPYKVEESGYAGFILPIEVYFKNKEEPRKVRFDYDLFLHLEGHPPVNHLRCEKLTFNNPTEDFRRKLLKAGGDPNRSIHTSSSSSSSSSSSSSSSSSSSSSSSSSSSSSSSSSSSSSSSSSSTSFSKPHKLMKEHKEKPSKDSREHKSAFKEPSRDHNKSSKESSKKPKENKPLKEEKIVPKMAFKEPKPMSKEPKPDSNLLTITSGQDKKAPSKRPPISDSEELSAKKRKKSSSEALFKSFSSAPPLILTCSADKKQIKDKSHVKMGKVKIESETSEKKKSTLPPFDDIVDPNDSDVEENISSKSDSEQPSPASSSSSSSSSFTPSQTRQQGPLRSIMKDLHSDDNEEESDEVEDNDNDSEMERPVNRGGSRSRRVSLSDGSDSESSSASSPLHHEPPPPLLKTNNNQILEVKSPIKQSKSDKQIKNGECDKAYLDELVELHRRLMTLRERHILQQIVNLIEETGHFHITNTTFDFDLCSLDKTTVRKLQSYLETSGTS
Bfl-1 A1 inh = inhibitors of the anti-apoptotic protein A1, read as caspase activation; caspase activation, % (test concentration not listed); MEF A1-2A-BIM cells, Caspase-Glo 3/7 luminescence, 3 h; percent of clofoctol response, vehicle zero; AID 2462; hit rate 0.066% among 330,000;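 active means over half of replicate activation scores above 10%, or exactly half above 10 with the replicate mean above 10; inconclusive means replicate mean below 10 yet half the replicates above 10; inactive means over half of replicates below 10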;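 further: wells of about 30 µL received 50 nL stock; many hits fall short of the cut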
RanGTP-Imp inh = inhibitors of RanGTP-importin-beta interaction, primary screen, biochemical, FRET, CFP-Ran, YFP-importin-beta, homogeneous; cell-free CFP-Ran/YFP-importin-beta FRET ratio; inhibition, % (no concentration beside the values); hit rate 1.1% among 300,000;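 active means most replicates above 15%; inconclusive means exactly half above 15%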;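 further: 0% = DMSO wells and 100% = Ran loaded with GDP instead of GTP; wells of about 40 µL received 100 nL stock; the first replicate is given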
Beta apoptosis = blocks beta cell apoptosis. INS-1E cytokine-induced death, ATP luminescence, 48 h; percent of positive-control rescue, neutral wells zero. hit rate 0.8% among 300,000. AID 435005. protection from apoptosis, % (concentration not given with the values);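 active means all replicates at 75% or more, or half of them and the mean; inconclusive means half reach 75% but not the mean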;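 further: 0% = cytokine-treated negative control wells and 100% = positive control rescue; higher means more ATP so stronger rescue from cytokine killing; wells of about 40 µL received 100 nL stock; the first replicate is given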
T cruzi repl = blocks replication of Trypanosoma cruzi; AID 1885; hit rate 1.4% among 300,000; T. cruzi beta-gal in NIH3T3, luminescence, 90 h; inhibition, % (test concentration not listed);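 active means mean inhibition across valid replicates above about 55%, limit read from the data; inconclusive means mean below that limit but half or more replicates reach it; inactive means mean below it, under half of replicates reach it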;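 further: signal also drops with host cell toxicity which is not excluded here; 0% = plate median of DMSO wells and 100% = zero luminescence signal; higher percent means less beta-gal luminescence so fewer parasites; stock transfer was 50 nL into about 50 µL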
Starred values were filed as active, the others as inactive; ? = inconclusive; / = not tested or not shown.

SMILES	Calb FLC	Vif TR-FRET	LANA-H2B inh	MLL AF4-AF9 inh	Bfl-1 A1 inh	RanGTP-Imp inh	Beta apoptosis	T cruzi repl
CCOC(=O)N1CCN(C(=O)c2cccn3c(=O)c4cc(Br)ccc4nc23)CC1	0	-7%	3.3	0.9	0.3	1.7	-3	13
COc1ccc(/C=N/n2c(-c3ccccc3)n[nH]c2=S)cc1	9	/	1.6	-6.9	0.9	1.2	5	3
Cc1cccc(CSc2nnc(CCCCCNC(=O)OC(C)(C)C)o2)c1	11	/	-4.4	-3.0	0.4	0.1	-8	32
COC(=O)Cc1c(O)ccn(CCc2c[nH]c3ccccc23)c1=O	-3	-9%	3.3	-1.5	0.7	-2.6	-1	-13
O=C(Nc1ccc(CN2CCCCC2)cc1)c1ccc(Br)o1	1	?	-4.3	/	-1.2	2.9	-4	6
CCCc1nn(C)c2c1C(c1ccncc1)C(C#N)=C(N)O2 (stereo not given)	0	3%	-2.6	/	0.7	1.7	-6	-7
CC(C)CC(=O)N1CCC(N2CCN(c3ccccc3)CC2)CC1	-8	-8%	1.8	/	-0.2	-2.7	-10	-12
CN1C(=O)c2cccc3c(S(=O)(=O)Nc4ccc(O)c(C(=O)O)c4)ccc1c23	-2	/	-1.2	-0.4	0.1	3.9	-1	-9
COc1ccc(-c2nc(CSCC(=O)NC3CCN(Cc4ccccc4)CC3)c(C)o2)cc1OC	-4	-3%	6.8	7.3	0.6	0.3	-8	28
CCN1CCN(c2ccc(S(=O)(=O)N3CCCCC3)cc2NC(=O)COc2ccc(F)cc2Cl)CC1	-13	3%	1.7	3.3	1.5	-1.0	18	64*
Cc1ccc(S(=O)(=O)N2CCOCC2)cc1C(=O)NCC1CCCO1 (stereo not given)	-3	-8%	-10	0.5	0.5	-1.0	-5	-11
O=C(Nc1ccccc1F)c1ccc(CNS(=O)(=O)c2cccc(C(F)(F)F)c2)cc1	2	-1%	-0.2	/	0.7	-0.5	0	-2
O=C(COC(=O)c1ccccc1Br)NCCC1=CCCCC1	5	26%	-1.0	-3.8	-0.1	3.3	-2	-6
Cc1cc(C)c(NC(=O)CN2C(=O)NC3(CCOc4ccccc43)C2=O)c(C)c1 (stereo not given)	1	10%	-0.4	/	0.2	2.4	-1	-4
CC(NC(=O)CCSCc1ccccc1F)c1ccccc1 (stereo not given)	1	-1%	3.6	0.2	0.3	-1.1	-5	-3
CCS(=O)(=O)N1CCC(C(=O)O)CC1	-2	-35%	-5.9	-1.1	1.6	1.3	3	-12
Cc1ccc(CNC(=O)c2cnc(-c3ccccn3)nc2C(F)(F)F)cc1	4	0%	-6.4	/	0.7	6.0	-10	-6
CSc1cccc(NC(=O)CCCOc2ccc(Cl)cc2Cl)c1	-2	17%	-1.8	/	-1.0	0.8	-3	-8
COc1ccc(S(=O)(=O)N2CC(O)CC2C(=O)Nc2cccnc2)cc1 (stereo not given)	-7	1%	-0.1	-3.5	0.4	?	-1	-18
CC(C)(C)c1cc[n+](/C(C(=S)NC2CC2)=C(/[O-])c2ccc(Cl)s2)cc1	-34	10%	-0.3	/	-0.7	4.1	-9	-11
COCCN(C(=O)c1cc(Cl)nc2ccccc12)c1c(N)n(Cc2ccccc2)c(=O)[nH]c1=O	/	/	-3.7	0.1	0.8	/	9	/
Cc1ccc(C)c(N2CCN(C(=O)CCCCn3c(=O)[nH]c4ccccc4c3=O)CC2)c1	13	19%	-0.2	/	-0.7	1.6	/	4
COc1cccc(NC(=O)CN(C)C(=O)c2cc(-c3ccc(C)o3)nc3ccccc23)c1	/	24%	60*	0.2	0.6	/	3	/
CCOc1ccc(S(=O)(=O)N(C)c2ccc(OCC(=O)NCc3ccc(C(=O)OC)cc3)cc2)cc1	-12	13%	0.2	8.2	0.8	-1.6	1	0
O=C(c1ccccc1)c1c[nH]c2cc3c(cc2c1=O)OCO3	0	?	/	/	/	2.6	/	-22
CC(=O)c1nc(N2C(=O)CC(Cc3ccc(C)cc3)C2=O)sc1C (stereo not given)	-5	-2%	12	-7.2	0.1	2.6	-6	-4
CCCCc1nc(NCc2ccccc2)c(C#N)c2c1COC(C)(C)C2	1	25%	-1.4	/	0.9	4.6	-3	-30
CN(CC(=O)O/N=C(\N)c1ccccn1)S(=O)(=O)c1cc(Cl)ccc1Cl	-6	0%	0.3	/	1.3	2.0	0	-7
O=S1(=O)CCN(Cc2ccc(F)cc2)CC1	-2	-13%	8.2	-1.3	1.3	3.7	4	-11
COc1ccc(-c2n[nH]c(C)c2-c2ccc(Cl)cc2)c(O)c1OC	5	-3%	3.7	/	-0.5	-0.4	-10	-6
COc1cccc(CN(C)C(=O)c2cccc(S(=O)(=O)N3CCN(c4ccc(F)cc4)CC3)c2)c1OC	1	/	-2.0	-14	-0.3	0.1	61	27
COC(=O)C1=C[C@@H](C(=O)OC)[C@@H]2C3=C(C(=O)[C@@]2(C)NC(=O)c2ccccc2)[C@H](c2ccccc2)[C@@H]2C(=O)NC(=O)[C@@H]2[C@@H]3C1	-5	/	1.9	-2.0	?	-2.1	-5	-16
CCOC(=O)c1sc2nc3c(cc2c1N)COC(C(C)C)C3 (stereo not given)	6	30%	-11	/	-5.0	5.2	1	-10
COc1ccccc1CC(NC(C)=O)C(=O)NC1CCN(C(=O)Nc2ccccc2Cl)CC1 (stereo not given)	2	?	5.5	-0.3	-0.6	-2.3	-4	-14
CCN(CC(=O)NC(C)(C)C)C(=O)CN1c2cccc3cccc(c23)S1(=O)=O	9	/	1.7	4.7	0.7	-1.4	0	-3
O=S(=O)(NCc1ccc(Cl)cc1)c1cnc[nH]1	-2	3%	1.3	/	0.3	-1.4	-11	-10

Two consecutive entries out of the list so far, for reference:
SMILES	Calb FLC	Vif TR-FRET	LANA-H2B inh	MLL AF4-AF9 inh	Bfl-1 A1 inh	RanGTP-Imp inh	Beta apoptosis	T cruzi repl
O=C(c1ccccc1)c1c[nH]c2cc3c(cc2c1=O)OCO3	0	?	/	/	/	2.6	/	-22
CC(=O)c1nc(N2C(=O)CC(Cc3ccc(C)cc3)C2=O)sc1C (stereo not given)	-5	-2%	12	-7.2	0.1	2.6	-6	-4

Going on with the list:
SMILES	Calb FLC	Vif TR-FRET	LANA-H2B inh	MLL AF4-AF9 inh	Bfl-1 A1 inh	RanGTP-Imp inh	Beta apoptosis	T cruzi repl
Cc1ccc(NC(=O)Cn2nnc(-c3ccccc3NC(=O)c3cccs3)n2)cc1	-5	-1%	0.4	/	-0.3	-0.9	17	22
COc1ccc(N2CCN(CCNC(=O)C3CC(=O)N(C4CCCC4)C3)CC2)cc1 (stereo not given)	4	9%	-1.8	6.2	0.4	3.4	2	-2
O=C(CCN1C(=O)S/C(=C/c2ccc(F)cc2)C1=O)Nc1ccc(O)c(C(=O)O)c1	0	/	1.4	-0.4	0.2	0.0	0	-4
CCOC(=O)C(NCCOC)(NC(C)=O)C(F)(F)F (stereo not given)	-2	0%	-0.7	7.6	-0.4	-0.5	2	10
N#CNC1=NCN(CCc2ccccc2)CN1	1	-1%	2.4	/	0.1	-0.7	-2	-14
COc1ccccc1CNS(=O)(=O)c1ccc2c(c1)N(C(C)=O)CCO2	-6	/	-1.2	1.3	-0.6	3.9	6	-12
CCOC(=O)Cn1cc(/C=C(/C#N)C(=O)NC(C)C)c2ccccc21	2	-1%	1.2	1.3	0.5	-0.2	-1	7
CCOC(=O)c1c(C)nc2sc(C(=O)Nc3ccccc3)c(N)c2c1-c1ccc(OC)cc1	-4	-6%	0.7	/	0.9	-6.1	36	27
O=C1CN(C(=O)c2cc3ccccc3oc2=O)C(c2ccccc2)c2cc(F)ccc2N1 (stereo not given)	0	30%	-1.1	0.4	0.4	-0.9	/	4
Cc1ccc(C)c(NC(=O)C(CC(=O)O)C2CCCO2)c1 (stereo not given)	3	/	1.1	0.2	0.7	1.3	-3	-5
Cc1nc(N2CCN(Cc3ccccc3)CC2)nc2c1C(=O)CC(c1ccco1)C2 (stereo not given)	11	?	0.8	/	-0.1	/	4	41
COc1ccc(N2CC(C(=O)Nc3ccc(S(=O)(=O)Nc4nc(C)cc(C)n4)cc3)CC2=O)cc1 (stereo not given)	-2	-6%	6.2	-7.9	-1.0	6.6	-3	-6
COc1ccc(OCCSc2nnc(CCNC(=O)c3ccc(Cl)c(Cl)c3)n2C)cc1	4	3%	15	5.0	0.5	-1.9	3	15
Cc1[nH]c2ccc(C(=O)N3CCC(C(N)=O)CC3)cc2c1C	/	-1%	-2.2	-0.8	-2.1	/	-1	/
COc1ccc(C(=O)N/C(=C/c2cccs2)c2nc3ccccc3[nH]2)cc1OC	12	7%	-0.7	-5.4	1.5	4.1	1	-7
COCCNC(=O)c1cc2c(=O)n3cccc(C)c3nc2n1C	0	/	-2.6	-2.5	0.2	-3.5	/	-5
COc1cccc(CN(C)C(=O)c2cc(COc3ccc(-n4cncn4)cc3)on2)c1	-4	/	-1.0	-4.2	0.4	-1.5	6	2
COc1ccc(C(=O)NCC(=O)NCc2cc(=O)n(C)c(=O)n2C)cc1	6	-11%	-0.4	-1.8	-1.0	-0.1	3	-15
CC(C)(C)NC(=O)C(c1ccc(O)cc1)N(Cc1ccco1)C(=O)CCC(=O)Nc1ccccn1 (stereo not given)	1	/	-0.2	2.1	-0.9	-1.0	-9	8
CCOc1ccc(N2C(=O)/C(=C/c3cc(OC)c(OC)c(OC)c3)N(CC(=O)OC)C2=S)cc1	8	-2%	0.2	/	-2.0	?	9	8
COc1cc(C(C[N+](=O)[O-])c2c(N)n(C)c(=O)n(C)c2=O)ccc1O (stereo not given)	2	6%	1.8	-0.3	-0.4	-1.5	3	-13
NS(=O)(=O)c1ccc(NC(=O)COC(=O)COc2cccc(C(F)(F)F)c2)cc1	?	-11%	5.1	-5.8	0.3	-0.5	-2	-12
Cc1cccc(OCCCOc2cccc3cccnc23)c1C	17	?	-0.4	/	0.2	2.7	-7	3
O=c1cc(CN2CCCc3ccccc32)nc2sccn12	5	22%	11	-1.8	0.0	-125	-13	11
Cc1csc(=O)n1CCC(=O)OCC(=O)Nc1cccc(C#N)c1	/	-10%	1.2	1.1	-0.7	1.0	-8	-11
O=C1CCCC2=C1C(c1ccccc1)NC(=S)N2 (stereo not given)	14	-3%	-0.5	-12	-0.8	-1.7	-2	-10
COc1ccc(CNC(=O)c2cccc(N(C)C)c2)cc1	-3	29%	-6.8	/	1.0	-3.5	0	9
O=S1(=O)CCN(Cc2cccc(Cl)c2)CC1	-9	3%	/	/	0.5	-0.8	-3	-5
CCc1ccccc1NC(=O)CSc1nnc([C@@H](NC(=O)OC(C)(C)C)C(C)CC)o1 (stereo not given in full)	-7	25%	0.6	/	0.2	-0.9	/	4
COC(=O)C1=C(C)N(C)C(=O)NC1c1ccsc1 (stereo not given)	-1	-3%	1.8	-0.4	0.7	-3.5	7	-3
COc1ccc(-c2cc(C(=O)N(C)Cc3ccccc3)no2)cc1OC	-12	15%	-2.4	8.3	0.0	8.2	4	4
CNC(=S)N/N=C(\C)c1ccccc1	-4	5%	0.3	3.9	-0.4	4.5	4	-28
COc1cc(-c2nnc(SC/C=C/c3ccccc3)n2N)cc(OC)c1OC	-12	6%	2.2	/	-0.1	4.3	13	-13
CC1(C)CC(=O)C(=Cc2cn(-c3ccccc3)nc2-c2ccccc2)C(=O)C1	?	/	3.8	5.1	1.8	6.5	1	-27
